# Bioassay records from PubChem BioAssay.
# Dynein cargo inh = blocks dynein driven cargo transport along microtubules; 3617.4 mouse cells, GR-EGFP nuclear translocation imaging; test concentration mostly 20 µM; stimulated with dexamethasone, 1 µM; active compounds read low; z-score, hits read low; 220,000 tested, 0.47% active;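 active = plate z-score of nuclear minus cytoplasmic receptor signal below a set negative limit, without overly bright fluorescence or cell loss, cut at about -3.5 in these data, passing the limit was not always enough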;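 note: z-score of nuclear minus cytoplasmic ring GR-EGFP intensity difference per well; some compounds called inactive have numbers as strong as hits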
#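 Buffer or medium: tet-free, stripped-serum medium; Also added: dexamethasone, 1.0 µM final; Technique: high-content fluorescence imaging after fixation; Times: 48 h induction, 1 h compound, 30 min dex at 37 °C; Read-out: per-cell GR-EGFP intensity, nucleus versus surrounding cytoplasmic ring, well-averaged.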
# T cell modulator = modulates CD8 T cell binding to vesicles; 2C CD8+ T cell-vesicle binding, flow cytometry; active compounds read low; calls only at 7 µM; 330,000 tested, 0.068% active; AID 2052;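 active = response, share of CD8 T cells binding vesicles, and their 90th percentile fluorescence all below set limits, cut at about 80% in these data, passing the limit was not always enough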
#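 Also added: QL9-peptide-loaded Drosophila micro-vesicles bearing Ld, ICAM-1 and B7-1; Test system: purified 2C TCR transgenic mouse naive CD8+ T cells; Measured by: cytometric PE anti-B7-1 and Alexa647 anti-CD8 signals after 1% paraformaldehyde fixation; Timing: binding step 1.5 h, 37 °C, antibody labelling 20 min, ice.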
# Autophagy mod = alters autophagy in cells; MEF GFP-LC3 puncta imaging; test concentration mostly 10 µM; calls only at 10 µM (by protocol); 190,000 tested, 0.98% active;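 active = percentage of spot-positive cells more than 3 SD above its plate mean, without a fluorescence outlier flag or 80% toxicity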;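 note: spot-positive cell cutoff set from DMSO-treated cells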
# MT stabilizer = microtubule stabilization, imaging screen; HeLa tubulin immunostaining HCS, 24 h; share of cells brighter than vehicle mean+2SD; % tubulin-high responders, % at 10 µM; 200,000 tested, 0.83% active; AID 2205;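 active = plate Z-score above 3 for both tubulin-high and condensed-nucleus cell shares, with cell loss under 80%, at 10 µM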;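 note: anti alpha tubulin signal scored within the nucleus-defined area of each cell; some results filed as inactive read as strong as hits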
# b-catenin transl = alters nuclear translocation of beta-catenin in HeLa cells. immunofluorescence imaging. nuclear translocation activity, % at 5 µM. 190,000 tested, 0.3% active. AID 1665;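 active = nuclear translocation activity above 50% at 5 µM, with a well cell count of 50 or more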;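 note: per-cell ratio of nuclear to cytoplasmic median beta-catenin stain intensity; plate controls were DMSO negative control for no effect and GSK-3 inhibitor IX positive control for full effect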
#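 Signal – beta-catenin immunofluorescence imaging with DAPI · Test system – human HeLa cell line · Dosing – 5 µM primary single dose, 0.1% DMSO, 0.02–20 µM confirmation series · Measure – % activation, nuclear-to-cytoplasmic median beta-catenin signal ratio per cell · Incubation – 24 h compound exposure at 37°C, 5% CO2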
# Dynein cargo inh cytoplasmic EGFP = recorded beside Dynein cargo inh, whose call it bears; z-score; measured here: cytoplasmic GR-EGFP intensity; active compounds read high
# Dynein cargo inh nuclear GR-EGFP = second read-out of Dynein cargo inh, no call of its own (marks repeat the call); z-score; measured here: nuclear GR-EGFP intensity;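 lower value marks the stronger effect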
# Dynein cargo inh cell count = recorded beside Dynein cargo inh, whose call it bears; z-score; measured here: cell count per field
# b-catenin transl cell count 5 µM = further read-out of b-catenin transl, marked with its call; cell count; measured here: cell count, cytotoxicity flag
# T cell modulator vesicle-bound % = second read-out of T cell modulator, no call of its own (marks repeat the call); double positive events, %; measured here: CD8+ vesicle-bound cell fraction;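 binding gate set so that unloaded-vesicle control wells show 10% double positive cells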
# MT stabilizer Hoechst-high % = also measured in MT stabilizer; calls as there; % Hoechst-high responders; measured here: nuclear condensation Hoechst responders;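 share of cells brighter than vehicle mean plus two SD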
# MT stabilizer cytotoxicity % = also measured in MT stabilizer; calls as there; toxicity, %; measured here: cytotoxicity by cell density;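 0% = mean cell density of plate MIN control wells and 100% = no cells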
# Autophagy mod cell loss 18 h = second read-out of Autophagy mod, no call of its own (marks repeat the call); toxicity, %; measured here: cell loss, nuclei count;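 cell loss after 18 h compound exposure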
# Active calls of the source: *; i = inactive; . = no result given; & = joins results of further samples. A portion of the library; count on the stated rates, not on these rows.
# Sample of the layout:
# Each structure is followed by: Dynein cargo inh cytoplasmic EGFP, Dynein cargo inh cell count, b-catenin transl cell count 5 µM, Autophagy mod cell loss 18 h, T cell modulator vesicle-bound %, MT stabilizer Hoechst-high %, Dynein cargo inh, MT stabilizer, b-catenin transl, MT stabilizer cytotoxicity %, T cell modulator, Autophagy mod, Dynein cargo inh nuclear GR-EGFP
- CC(=O)Oc1ccc(C(c2ccc(OC(C)=O)cc2)c2ccccn2)cc1
 : -0.279, 0.848, 582, 23.1, 22.7, 3.2, -0.0942, 3.3, -0.6, 7.8, i, i, 0.138
- CC(C)OC(=O)C(C)(C)Oc1ccc(C(=O)c2ccc(Cl)cc2)cc1
 : -0.291, 0.129, ., 1.9, 18.9, 1.5, 0.313, 2.4, ., 4.5, i, i, 0.586
- Cn1c(=O)n(C)c2cc(N3CCCCC3)c(NC(=O)c3ccccc3)cc21
 : ., ., ., ., 24.7, ., ., ., ., ., i, ., .
- O=C(O)[C@@H]1CCCC[C@@H]1C(=O)N1CCc2ccccc2C1CN1C(=O)c2ccccc2C1=O (some centres not stated)
 : -0.0794, 0.26, 1146, 1.9, 24.0, 4.7, 0.145, 2.2, -1.2, 9.0, i, i, 0.239
- c1ccc(CNc2ncnc3ccccc23)cc1
 : -0.126, -0.106, 1129, 16.1, 23.8&17.5, 3.0, -1.18, 3.8, -2.0, 2.8, i, i, -0.0502
- Cn1c(=O)c2[nH]cnc2n(C)c1=O
 : -0.291, 1, ., -1.7, 25.2, 2.5, -1.26, 2.7, ., 8.6, i, i, -0.0629
- CCCCCCCCNc1ncnc2ccccc12
 : -0.242, 0.558, 1274, 7.7, 47.2, 1.0, -0.562, 1.1, -0.1, 7.6, i, i, 0.0179
- COc1cc([C@@H]2c3cc4c(cc3[C@@H](O[C@@H]3O[C@@H]5CO[C@@H](C)O[C@H]5[C@H](O)[C@H]3O)[C@H]3COC(=O)[C@H]23)OCO4)cc(OC)c1O
 : ., ., ., ., 26.4, ., ., ., ., ., i, ., .

# Results, repeating the preview:
# Each structure is followed by: Dynein cargo inh cytoplasmic EGFP, Dynein cargo inh cell count, b-catenin transl cell count 5 µM, Autophagy mod cell loss 18 h, T cell modulator vesicle-bound %, MT stabilizer Hoechst-high %, Dynein cargo inh, MT stabilizer, b-catenin transl, MT stabilizer cytotoxicity %, T cell modulator, Autophagy mod, Dynein cargo inh nuclear GR-EGFP
- CC(=O)Oc1ccc(C(c2ccc(OC(C)=O)cc2)c2ccccn2)cc1
 : -0.279, 0.848, 582, 23.1, 22.7, 3.2, -0.0942, 3.3, -0.6, 7.8, i, i, 0.138
- CC(C)OC(=O)C(C)(C)Oc1ccc(C(=O)c2ccc(Cl)cc2)cc1
 : -0.291, 0.129, ., 1.9, 18.9, 1.5, 0.313, 2.4, ., 4.5, i, i, 0.586
- Cn1c(=O)n(C)c2cc(N3CCCCC3)c(NC(=O)c3ccccc3)cc21
 : ., ., ., ., 24.7, ., ., ., ., ., i, ., .
- O=C(O)[C@@H]1CCCC[C@@H]1C(=O)N1CCc2ccccc2C1CN1C(=O)c2ccccc2C1=O (some centres not stated)
 : -0.0794, 0.26, 1146, 1.9, 24.0, 4.7, 0.145, 2.2, -1.2, 9.0, i, i, 0.239
- c1ccc(CNc2ncnc3ccccc23)cc1
 : -0.126, -0.106, 1129, 16.1, 23.8&17.5, 3.0, -1.18, 3.8, -2.0, 2.8, i, i, -0.0502
- Cn1c(=O)c2[nH]cnc2n(C)c1=O
 : -0.291, 1, ., -1.7, 25.2, 2.5, -1.26, 2.7, ., 8.6, i, i, -0.0629
- CCCCCCCCNc1ncnc2ccccc12
 : -0.242, 0.558, 1274, 7.7, 47.2, 1.0, -0.562, 1.1, -0.1, 7.6, i, i, 0.0179
- COc1cc([C@@H]2c3cc4c(cc3[C@@H](O[C@@H]3O[C@@H]5CO[C@@H](C)O[C@H]5[C@H](O)[C@H]3O)[C@H]3COC(=O)[C@H]23)OCO4)cc(OC)c1O
 : ., ., ., ., 26.4, ., ., ., ., ., i, ., .
- COC1=CC(=O)CC(C)C12Oc1c(Cl)c(OC)cc(OC)c1C2=O (configuration not stated)
 : -0.26, 1.11, 492, 5.5, 14.4, 17.3, -0.127, 13.8, 2.4, 15.4, i, i, 0.123
- O=C(Nc1cccc(N=Cc2cc(Br)cc(Br)c2O)c1)c1ccco1
 : -0.255, 0.163, 994, -13.0, 40.3, 0.9, -0.051, 5.8, -1.1, 8.7, i, i, 0.0118
- O=S(=O)(c1ccc(F)cc1)n1cnc2ccccc21
 : ., ., ., ., 20.0, ., ., ., ., ., i, ., .
- Cc1[nH]c2ccccc2c1C(c1ccncc1)N1CCN(c2ccc(F)cc2)CC1 (configuration not stated)
 : -0.251, -0.802, ., -5.8, 42.0, 2.6, 0.374, 2.5, ., 3.7, i, i, -0.148
- O=C(O)CCc1cc(I)c(Oc2ccc(O)c(I)c2)c(I)c1
 : 0.485, -2.41, 1228, ., ., ., 1.76, ., -2.0, ., ., ., 1.69
- CN1Cc2c(N)cccc2C(c2ccccc2)C1 (configuration not stated)
 : -0.271, 1.02, 603, 34.9, 38.3, 2.5, -0.504, 2.9, -1.0, 5.7, i, i, -0.0744
- Cc1nc2ccccc2c(-c2ccccc2)c1CC(=O)O
 : -0.273, 0.287, 478, 9.0, 14.1, 4.1, 0.8, 3.5, -1.8, 2.9, i, i, 0.495
- Nc1nc(N)c2[nH]cnc2n1
 : ., ., ., ., 61.8, ., ., ., ., ., i, ., .
- O=C(C1CCCCC1)N1CC(=O)N2CCc3ccccc3C2C1 (configuration not stated)
 : -0.268, -0.0336, ., 36.9, 65.1, 2.0, -0.373, 3.2, ., 5.5, i, i, 0.308
- Cc1cc(/C=N/n2c(COc3ccccc3C)nc3ccccc3c2=O)c(O)c([N+](=O)[O-])c1
 : -0.259, 1.39, 921, 12.0, 53.9, 2.1, -0.616, 8.2, 3.2, 0.5, i, i, -0.322
